nsP2pro primary: inhibitors of chikungunya virus nsP2 protease. FRET peptide cleavage, nsP2pro, fluorescence 1 h. Potency, µM (series often up to 24.9 µM), for the others: at the highest dose activity change, negative = inhibition, hits mostly inhibitors. 1.1% of 31,000 active; active means well fitted inhibition curve with a large enough effect; inconclusive means small, poorly fitted or top-dose-only effect; inactive means no such curve, though single readings can be large or run the other way; note: nearly all actives have a fitted effect of over 60% in size; a reference inhibitor and vehicle were the controls
* hit, by the source's call; i = inactive; ? = inconclusive; & = joins results of further samples; [ ] = another dose, or the depositor's remark. % is set by controls: 0 for no effect and ±100 for the full control effect; potency is the fitted concentration of half-maximal effect.

smiles	nsP2pro primary
CC(=O)OC(C)(C)/C=C/C(=O)C(C)(O)C1C(O)CC2(C)C3CC=C(C(C)(C)C(=O)O)C(CC(=O)O)C3(C)C(=O)CC12C (stereo not drawn)	0.7%[10 µM]
COc1cc(SC)ccc1C(=O)N[C@H]1CCN2C(=O)[C@@H](CC(=O)O)NC(=O)[C@@H]2C1	i
Cc1cccc(N2CCN(C(=O)c3cccc(-n4c(C)nc5cccnc54)c3)CC2C)c1 (stereo not drawn)	-7.9%
C=C1C(OC2OC(CO)C(O)C(O)C2O)CC2C(C)(C)C(O)CCC2(C)C1CC/C(C)=C\COC(=O)CC(=O)O (stereo not drawn)	18.6%[10 µM]
CC(=O)N[C@H]1CCN(c2ccc(C3=NOC(CN[S+](=O)([O-])C(C)C)C3)cc2F)C1 (stereo partly drawn)	-4.6%
Cn1c2cc(C(=O)O)sc2c2cnn(Cc3ccccc3F)c(=O)c21	-2.2%
Cc1cccc(N2CCN(S(=O)(=O)c3ccc(-c4cc(C(F)(F)F)on4)s3)CC2)c1C	-13.8%
Cc1ccc(C(=O)N2CCc3sc(C(=O)NCc4cc(F)cc(F)c4)cc3C2)cc1	-6.4%
CCOc1ccc(OCC)c(NS(=O)(=O)c2ccc3c(c2)CCN3C(=O)C2CCC2)c1	-19.6%
CS(=O)(=O)c1ccc(-c2nnc(/C=C/c3nnc(-c4ccc(C#N)cc4)o3)n2-c2ccccc2Cl)nc1	-2.4%&-4.2%
CC(C)Cn1c(CN(C)CCC2CCCCO2)cnc1S(=O)(=O)Cc1ccccc1 (stereo not drawn)	-1.6%
CCCCCN(CCC12CC3CC(CC(C3)C1)C2)C(=O)NCCCc1ccncc1	-9.0%
CN(C)CCn1cc(-c2ccc(F)cc2)c(-n2cccc2)n1	-5.9%
O=C(Nc1ccc(=O)n2c1[C@@H]1C[C@@H](CN(C(=O)NC3CCCCC3)C1)C2)c1ccco1	?
CN1CCOc2ccc(S(=O)(=O)N3CCN(S(=O)(=O)c4c(F)cccc4F)CC3)cc21	-4.8%
Cc1ccccc1CCNC(=O)c1ccc2c(c1)nc1n2CCCCC1	-4.3%
COc1ccc(CN2CCCC3(Cc4ccccc4CNC3=O)C2)c(OC)n1 (stereo not drawn)	4.1%
CC(/C=C/C=C(\C)C(=O)O[C@@H]1O[C@H](CO[C@@H]2O[C@H](CO)[C@@H](O)[C@H](O)[C@H]2O)[C@@H](O)[C@H](O)[C@H]1O)=C\C=C\C=C(C)\C=C\C=C(/C)C(=O)O[C@@H]1O[C@H](CO[C@@H]2O[C@H](CO)[C@@H](O)[C@H](O)[C@H]2O)[C@@H](O)[C@H](O)[C@H]1O	?
Cc1cccc(NC(=O)CN2C(=O)C(c3ccccc3)=NC23CCC(C)CC3)c1 (stereo not drawn)	-11.2%
CN1CCN(C(CNC(=O)c2cccc(F)c2)c2ccc3c(c2)OCO3)CC1 (stereo not drawn)	-23.0%
CCOC(=O)c1c(C)[nH]c(C)c1S(=O)(=O)N(C)CC(=O)N1CCN(c2ccc(Cl)cc2)CC1	-24.6%
O=C1NC2(CCN(Cc3ccsc3)C2)Oc2ccccc21 (stereo not drawn)	?
CC(C)c1ccc(CN2CC(CNC(=O)c3cnn(C)c3)C3(C2)CN(c2ccccc2)C3)cc1 (stereo not drawn)	-13.8%
COc1ccc(C2=Nn3c(nnc3-c3ccccc3O)SC2)c(OC)c1	i
Cc1cc(C)c2c(=O)cc(C(=O)Nc3ccccc3C(F)(F)F)oc2c1	-22.7%
Cc1cc(C)nc(NC(=S)N2CCN(c3ccc4ncccc4c3[N+](=O)[O-])CC2)c1	0.5%
CC(=O)c1ccc(N2CCN(S(=O)(=O)c3ccc4c(c3)CCCC(=O)N4)CC2)cc1	3.0%
CC1CC(OC(=O)c2ccccc2O)CC(C)(C)C1 (stereo not drawn)	-1.0%
CCN(c1ccccc1)S(=O)(=O)c1ccc(NC(=O)c2cc(=O)c3ccc(C)c(C)c3o2)cc1	-8.0%
CCc1ccccc1Nc1nn2c(=O)c3ccc(C(=O)NCCC4=CCCCC4)cc3nc2s1	-25.8%

Going on with the list.
smiles	nsP2pro primary
Cc1ccc(NS(=O)(=O)c2ccc3c(c2)CCC(=O)N3)cc1	-7.7%
Cc1cc(C)cc(NC(=O)CSc2nccn2-c2ccccc2)c1	-8.7%
CC(=O)OC1CC(C)(C(=O)O)CC2C3=CC(=O)C4C5(C)CCC(OC6OC(C(=O)O)C(O)C(O)C6OC6OC(C(=O)O)C(O)C(O)C6O)C(C)(C)C5CCC4(C)C3(C)CCC12C (stereo not drawn)	4.5%[5.1 µM]
COCCn1c(C)cnc1CC1CCCN(S(=O)(=O)c2cccc(F)c2)C1 (stereo not drawn)	i
COc1ccc(CNC(=O)CCS(=O)(=O)c2cc(Br)cc3c2N(C(C)=O)C(C)C3)cc1 (stereo not drawn)	-17.5%
C[C@@H]1C[C@H]2O[C@@H]2/C=C\C=C\C(=O)Cc2c(Cl)c(O)cc(O)c2C(=O)O1	?
O=C(/C=C\c1ccc(O)cc1)N[C@@H](Cc1ccc(O)cc1)C(=O)O	130.8%[activator]
CN(CCCN1c2ccccc2CCc2ccccc21)C(=O)C1CNCCO1 (stereo not drawn)	-10.7%
O=C1CC2CCN(Cc3coc(-c4ccccc4)n3)CC2CCN1 (stereo not drawn)	i
O=C(NCc1cccc(O)c1)Nc1nc(-c2ccncc2)cs1	22.3%
Cc1c(Cl)cccc1Nc1nc(N)nc(CSc2nc3ccccc3s2)n1	6.2%
CC1(C(=O)O)CC[C@]2(C(=O)OC3OC(CO)C(O)C(O)C3O)CC[C@]3(C)C(=CCC4[C@@]5(C)CC[C@H](OC6OCC(O)C(O)C6OC6OC(CO)C(O)C(O)C6O)C(C)(C)C5CC[C@]43C)C2C1 (stereo partly drawn)	-1.6%[5.1 µM]
O=c1oc2c(CN3CCOCC3)c(O)ccc2cc1-c1ccccc1	-2.9%
COc1ccc(C(=O)n2nc(-c3cccnc3)nc2NCc2ccccc2)cc1OC	-8.8%
COCCNC(=O)N1CCCC(CNC(=O)c2cccc3ccccc23)C1 (stereo not drawn)	0.6%
CSc1ncc(C(=O)Nc2ccc(C(C)=O)cc2)c(-c2ccccc2)n1	-26.2%
CCOC(=O)c1ccc2nc(C)cc(Nc3cccc(C(=O)O)c3)c2c1	0.2%
C=C1CC[C@H]2[C@@](C)(CCC[C@@]2(C)C(=O)O)[C@@H]1CCC(C)CCO (stereo partly drawn)	-9.5%
CC(C)C(=O)N1CCCCCCNC(=O)[C@@H]2C[C@@H](C(=O)NCCc3c[nH]c4ccccc34)C[C@@H]21	-11.1%
CC1=CC(=O)[C@@H](O)[C@]2(C)C3[C@@H](O)[C@@H]4OC(=O)[C@@H]([C@H]4C)[C@]3(C)C(=O)[C@H](O)[C@@H]12 (stereo partly drawn)	-9.6%
Cc1cc(-c2nnc3n2CCCCC3)c(C)n1-c1ccccc1	-27.9%&-0.4%&-14.1%&1.1%
CC(=O)NCCc1nc2ccccc2n1CCCCOc1ccc(Cl)cc1	1.5%
CCn1c(C(=O)OC)c(NC(C)=O)c2cc(NC(C)Cc3ccccc3OC)cnc21 (stereo not drawn)	?
O=C(O)c1ccc(N2C(=O)/C(=C/c3ccc(-c4ccc([N+](=O)[O-])cc4)o3)C=C2c2ccccc2)cc1	7.85µM*
COc1ccc(S(=O)(=O)N(CC(=O)NCc2ccccc2OC)c2ccc(C)cc2)cc1	-16.7%
O=C1C[C@@H](c2ccc(O)cc2)Oc2cc(O)ccc21	-0.6%
CC(=O)N1CCc2cc(S(=O)(=O)N3CCN(S(=O)(=O)c4c(F)cccc4F)CC3)ccc21	-5.6%
Cn1ncc(N2CCC(CNC(=O)c3cccc4ccnn34)C2)cc1=O (stereo not drawn)	i
CC[C@@H](C)Nc1cc(C(=O)NC2CC3CC[C@@H](C2)N3c2ccc(C(=O)C3CC3)cn2)c(C)cc1C(N)=O (stereo partly drawn)	-1.3%
Cc1nc(C)c(-c2ccc(SCC(=O)Nc3ccc(C)c(F)c3)nn2)s1	-26.7%

Next part:
smiles	nsP2pro primary
CCN1CCN(CCCN2CC3(CCN(Cc4ncc[nH]4)CC3)OC2=O)CC1	i
Cc1ccccc1C(CC(=O)N1CCSCC1)c1ccccc1 (stereo not drawn)	0.9%
CN(c1ccccc1)c1ccc2ncn(C3CC3)c(=O)c2n1	-3.6%[39.2 µM]
Cc1ncc2n1C(=O)N(C1CCN(Cc3ccncc3)CC1)C2	-4.6%[39.2 µM]
Cc1ccc(S(=O)(=O)Nc2cnccc2C(=O)Nc2nc(-c3ccc(F)cc3)cs2)cc1	i
CCC(Sc1nc2ccncc2[nH]1)C(=O)Nc1cc(Cl)ccc1C (stereo not drawn)	12.3%
Cc1ccc(SCC(=O)Nc2ccc3oc(-c4ccc(F)cc4)nc3c2)cc1	-17.9%
NC(=O)c1ccc2c(c1)C1(CCN(CC3CC3)C1)CN2Cc1ccccc1 (stereo not drawn)	-17.1%[39.2 µM]
COc1ccnc(NC(=S)N2CCN(c3cccc(Cl)c3Cl)CC2)c1	-7.5%
Cc1ccc2nc(Cl)c3cc(C(=O)N4CCCCC4C)sc3c2c1 (stereo not drawn)	-17.2%
O=C1CCc2cc(S(=O)(=O)Nc3ccc(F)cc3)ccc2N1	-6.7%
Cc1ccc(N2CCN(C(=O)c3ccc4c(Cl)c5c(nc4c3)CCCC5)CC2)c(C)c1	-18.3%
COCc1nn2c(=O)cc(N3CCNCC3)nc2s1	-6.2%
CN(Cc1ccco1)c1ncnc2ccc(-c3ccoc3)cc12	-12.7%
CCOc1ccccc1CNC(=O)c1ccc2nc(CCc3ccccc3)oc2c1	-14.9%
Nc1nc2[nH]cc(CCc3ccc(C(=O)N[C@@H](CCC(=O)O)C(=O)O)cc3)c2c(=O)[nH]1	7.0%&6.2%
Cc1cc(F)ccc1-n1nnc(C(N)=O)c1C	-1.4%
COCCNc1nc(C)nc2c1nc(-c1ccccc1)n2CCN(C)C	-12.4%
O=C(Nc1ccc(N2CCN(c3ccc(F)cc3)CC2)c(C(=O)O)c1)c1cccs1	?
CCOC(=O)N1CCC(NC(=O)c2ccc3c(c2)N(Cc2cc(C)ccc2C)C(=O)c2ccccc2S3=O)CC1 (stereo not drawn)	-5.3%
COc1ccc(N(C(=O)c2cc(OC)c(OC)c(OC)c2)S(=O)(=O)c2ccc(C)cc2)cc1	-5.0%
O=C1CN(C(=O)C2CCCCC2)C(c2ccccc2)c2cc(F)ccc2N1 (stereo not drawn)	-10.7%
Cc1nn(Cc2ccccc2Cl)c(C)c1CN(C)CC(O)COc1ccc(Cl)cc1 (stereo not drawn)	0.6%
CN(c1cccc2cccnc12)S(=O)(=O)c1ccccc1	i
O=C(O)c1cccc(S(=O)(=O)Nc2nccs2)c1	1.1%
Cc1cc(C)cc(N2C(=O)CCSC23C(=O)N(Cc2ccccc2)c2ccccc23)c1 (stereo not drawn)	-12.7%
COC(=O)Nc1sc2c(c1C(N)=O)CCCC2	-4.6%
O=C(O)CSc1cc(NS(=O)(=O)c2ccc(Br)cc2)c2ccccc2c1O	1µM*
CN1C(=O)c2cccn2CC1C(=O)NC1CCCC1 (stereo not drawn)	-3.4%
O=C(NCc1ccccc1F)c1ccc(CN2CC(=O)N3CCCCC3C2=O)cc1 (stereo not drawn)	-15.2%

Next results
| Compound | nsP2pro primary |
| --- | --- |
| Cc1nnc(NCc2ccccc2)c2c1nnn2Cc1ccccc1Cl | -15.1% |
| Cc1cc(C)c(NC(=O)Cn2c(=O)n(CCC(=O)NCc3ccccc3Cl)c(=O)c3sccc32)c(C)c1 | -22.1% |
| COc1ccc(-c2oc3ncn4nc(-c5ccccc5Br)nc4c3c2-c2ccc(OC)cc2)cc1 | -23.7% |
| CC(C)c1noc(N2CCC(COc3ccc(-c4ccc(S(C)(=O)=O)cc4)nc3)CC2)n1 | -9.8% |
| COC(=O)c1ccccc1C(=O)Nc1nc(-c2ccccc2)cs1 | i |
| CCCC1=CC2=C(CO1)C(=O)C(C)(O)C(OC(=O)c1c(C)cc(OC)cc1O)C2 (stereo not drawn) | -20.0%[10 µM] |
| O=C(O)C1=NOC2CN([S+](=O)([O-])c3cc(C(F)(F)F)cc(C(F)(F)F)c3)CC12 (stereo not drawn) | -8.2% |
| Cc1noc(C)c1S(=O)(=O)N1CC(c2noc(C3CCCN3C)n2)C1 (stereo not drawn) | i |
| O=C(NCCc1ccc(Cl)cc1)c1cc(-c2cccs2)c2cccn2n1 | -13.9% |
| Cc1nnc([C@@H]2CC(F)(F)CN2C(=O)c2conc2C)o1 | -2.4% |
| CCN1CCN(CCCNC(=O)CS(=O)(=O)Cc2nc(-c3ccccc3C)oc2C)CC1 | -5.2% |
| Cc1cnc(C(=O)N2CC(Cn3c(C)cnc3-c3ccncc3)C2)cn1 | 6.9% |
| CCOc1ccc(CCNC(=O)c2cc3ccccc3n2CCN2CCOCC2)cc1OCC | -12.3% |
| CCSC1=NS(=O)(=O)c2ccccc21 | i |

The list is partial; rates above refer to the full screens.
